High-throughput results deposited in PubChem BioAssay by National Center for Advancing Translational Sciences (NCATS).
PINK1 expr mod: PINK1 expression modulation; PINK1 immunofluorescence, high-content cytometry, 24 h; Potency, µM (doses to about 76.6 µM), inactives show top-dose activation (PINK1 increase), most hits filed as activators; hit rate 0.2% among 410,000; AID 624263; active = well fitted activation curve with a large enough effect; inconclusive = small, poorly fitted or top-dose-only effect; inactive = flat fitted curve, though single readings scatter; cell line not stated here;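 note: potency is the fitted concentration of half-maximal effect; % of control where 0% means no effect; nearly all actives have a fitted effect of over 65% in size; a mitochondrial uncoupler was the plate control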
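PINK1 protein, normally rapidly degraded, was detected by immunofluorescence after 24 hour compound treatment of a stable cell line. Titration data (5 concentrations) came from laser-scanning cytometry, with CCCP-treated wells as controls.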
Six1-Eya2 inh: inhibitors of human Six1/Eya2 interaction. Q15475+O00167. AlphaScreen GST-Six1/His-Eya2 binding, biochemical; active compounds read low; control for the full effect not named in the record. activity change, % (concentration not given with the values). hit rate 0.56% among 360,000; in the data active = activity change below about -65%; inconclusive = about -30% to -65%; inactive = above about -30%; note: % is set by controls: 0 for no effect and ±100 for the full control effect
Target sequence (O00167 whole entry, looked up): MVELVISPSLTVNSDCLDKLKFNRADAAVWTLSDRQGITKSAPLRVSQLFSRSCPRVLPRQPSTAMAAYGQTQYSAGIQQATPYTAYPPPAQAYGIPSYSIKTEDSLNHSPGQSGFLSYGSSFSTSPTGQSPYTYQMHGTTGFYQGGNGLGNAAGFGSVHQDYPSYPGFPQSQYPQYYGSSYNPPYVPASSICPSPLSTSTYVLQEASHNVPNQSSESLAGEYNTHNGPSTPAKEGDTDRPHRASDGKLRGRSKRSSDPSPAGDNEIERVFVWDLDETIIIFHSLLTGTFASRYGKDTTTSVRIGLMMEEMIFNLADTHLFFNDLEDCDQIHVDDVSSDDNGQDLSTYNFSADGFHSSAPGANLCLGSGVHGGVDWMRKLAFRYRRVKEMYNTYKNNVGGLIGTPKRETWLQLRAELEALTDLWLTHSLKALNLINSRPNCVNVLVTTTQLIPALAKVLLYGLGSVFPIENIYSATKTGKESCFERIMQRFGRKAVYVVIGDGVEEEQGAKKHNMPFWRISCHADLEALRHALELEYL
Target sequence (Q15475 whole entry, looked up): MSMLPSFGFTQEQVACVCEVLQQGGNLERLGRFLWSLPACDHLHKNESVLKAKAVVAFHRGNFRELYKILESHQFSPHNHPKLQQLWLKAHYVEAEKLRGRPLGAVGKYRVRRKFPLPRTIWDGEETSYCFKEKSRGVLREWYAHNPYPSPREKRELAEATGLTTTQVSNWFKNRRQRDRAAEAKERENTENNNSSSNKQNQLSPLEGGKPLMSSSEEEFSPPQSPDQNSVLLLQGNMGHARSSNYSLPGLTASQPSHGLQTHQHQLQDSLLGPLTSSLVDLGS
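Six1/Eya2 binding was read as AlphaScreen signal after compounds were pinned into GST-Six1 plus His-tagged Eya2 (5X stock 250/500 nM) in pH 8.0 Tris/NaCl/TCEP buffer, beads added, then incubated 1 h, 37 C, dark.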
TRPV1 potentiator: human TRPV1 potentiation; hit rate 0.02% among 320,000; TRPV1-expressing cells, Fluo-8 calcium influx, capsaicin EC20 potentiation; host cell line not named in the record; control for the full effect not named in the record; Q8NER1; potentiation, % at 8.33 µM; AID 540277; active means potentiation above 80%; inconclusive means 30% to 80%; inactive means below 30%; note: 0% is about no effect
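Cells expressing TRPV1 were dye-loaded with Fluo-8 and read kinetically: 10 s baseline, 3 min after compound (agonist portion), then 2 min after EC20 capsaicin (allosteric enhancer portion). Calcium-bound dye fluorescence at 480/520 nm.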
D2 potentiator: human D2 receptor positive allosteric modulation. P14416. DiscoveRx D2 beta-arrestin cells, luminescence, 90 min; 100% = 57 uM dopamine signal. potentiation, % (test concentration not listed). hit rate 0.23% among 360,000; active = potentiation of 50% or more; inconclusive = 30% to 50%; inactive = 30% or less;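 note: compound concentration not given in the record; tested on top of an EC20 dose of dopamine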
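PathHunter D2 cells, attached overnight at 37 deg C, received compound in DMSO plus dopamine at EC20 (50 nM final) for 90 min at 37 deg C. Beta-arrestin recruitment was read as luminescence after 1 h with detection reagent at ambient temperature.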
Sfp PPTase inh: blocks B. subtilis Sfp PPTase activity | Biochemical Sfp PPTase activity, qHTS | Potency, µM, inactives show max response, negative = inhibition, most hits filed as inhibitors | hit rate 3.5% among 310,000; active = well fitted inhibition curve with a large enough effect; inconclusive = small, poorly fitted or top-dose-only effect, or another doubt; inactive = no such curve, though single readings can be large or run the other way;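 note: the enzyme is Sfp with the accession as filed and its product quenches rhodamine fluorescence; potency is the fitted concentration of half-maximal effect; 0% = enzyme reaction without inhibitor and -100% = no enzyme wells; top concentration of the series not given in the record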
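Fluorescence-quenching assay: 15 nM Sfp-PPTase preincubated 15 min at room temperature with compound, then 5 uM rhodamine-CoA and 12.5 uM BHQ-2-labelled YbbR peptide added. Fluorescence (ex 525/em 598 nm) read at start and after 30 min; difference gives rate.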
CtBP-E1A blk: blocks the CtBP interaction with E1A; AlphaScreen GST-E1A/His-CtBP binding, 1536-well; active compounds read low; control for the full effect not named in the record; activity change, % (no concentration beside the values); hit rate 0.49% among 340,000; AID 651724; in the data active means activity change below about -65%; inconclusive means about -30% to -65%; inactive means above about -30%; note: % is set by controls: 0 for no effect and ±100 for the full control effect
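AlphaScreen with 125 nM GST-E1A and 125 nM His-CtBP (5X stocks) in Tris pH 8.0, 300 mM NaCl, BSA, Tween 20, TCEP. Compounds preincubated 2 h at 37 deg C, then glutathione donor/nickel acceptor beads added for 1 h at 37 deg C in dark.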
D2 ag: agonists of human D2 dopamine receptor (beta-arrestin); P14416; DiscoveRx PathHunter D2 beta-arrestin, luminescence, 90 min; 100% = 57 uM dopamine signal; activation, % (test concentration not listed); hit rate 0.084% among 360,000; AID 624465; in the data active = activation above about 40%; inconclusive = about 15% to 40%; inactive = below about 15%; note: compound concentration not given in the record; the text of the record calls up to 30% inactive
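Agonist mode: compounds alone added to overnight-plated D2 PathHunter cells for 90 min at 37 C, with 57 uM final dopamine (EC100) defining full response. Beta-arrestin recruitment detected by chemiluminescent reagent, read after 1 h at ambient temperature.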
Starred values were filed as active, the others as inactive; u = inconclusive; x = not tested or not shown; & = joins results of further samples; [ ] = remark or other dose.

Structure	PINK1 expr mod	Six1-Eya2 inh	TRPV1 potentiator	D2 potentiator	Sfp PPTase inh	CtBP-E1A blk	D2 ag
CC(=O)N(C(C)=O)S(=O)(=O)c1ccc(N=NN2CCCCC2)cc1	1.0%	7	-6	-13	3%	14	-5.5
COc1ccc(/C=N/NC(=O)CC(=O)NCCc2ccccc2)cc1OC	-0.5%	-2	-2	-22	8%	-12	-1.3
COc1ccc(NC(=O)CN(C)CC(=O)Nc2cccc(S(=O)(=O)N(C)c3ccccc3)c2)cc1	0.5%	-18	0	1	13%	-28	-0.4
Cc1ccc(C(=O)Nc2nnc(CC(=O)N/N=C/c3ccc(O)c(O)c3)s2)cc1	4.3%	u	-5	-13	-13%	x	4.0
Cc1ccc2[nH]c3nc(SCCN4CCOCC4)nnc3c2c1	-0.9%	-20	-4	-12	u	-17	-2.5
Cc1cccc(C(=O)NCCCNC(=O)c2ccco2)c1	-0.7%	8	1	-6	18%	5	-2.6
CC(C)c1ccc(S(=O)(=O)N2CCN(C(=O)C3CCN(C(=O)c4ccc(F)cc4)CC3)CC2)cc1	1.1%	-2	-6	-4	1%	0	-2.7
COc1ccccc1N=Nc1c(C)[nH]n(-c2ccccc2)c1=O	2.0%	-20	-31	-5	14%	-23	-4.8
Cc1cc(C(=O)Cn2c(CO)nc3ccccc32)c(C)n1C	-0.5%	-4	-4	1	3%	-3	1.3
Cc1ccccc1C(=O)N=c1sccn1C	-0.3%	-3	5	-3	-3%	3	-2.9
O=C(Nc1ccc(Cl)c(C(=O)N2CCOCC2)c1)c1ccccc1	0.2%	6	6	-3	27%	-1	-7.6
COc1ccc(NC(=O)CCS(=O)(=O)c2ccc3c(c2)CCCN3C(C)=O)cc1	-1.5%	2	-1	-19	4%	7	-2.7
N/C(=N\OC(=O)c1ccccc1[N+](=O)[O-])c1cccnc1	2.5%	-2	-2	108*	11%	0	u
CCc1ccc(NC(=S)N(CCN(C)C)C(C)c2ccncc2)cc1 (stereo not given)	0.8%	-6	7	-11	8%	2	-2.5
CSCCC(NC(=O)c1ccco1)c1nc2ccccc2[nH]1 (stereo not given)	6.0%	-9	-32	-15	6%	x	-0.6
O=C(NCCc1c[nH]c2ccccc12)C(F)(F)C(F)F	-0.2%	8	0	-12	21%	1	1.5
Cc1nc2ccccn2c1/C(O)=C1\C(=O)C(=O)N(CCN(C)C)C1c1ccco1 (stereo not given)	-0.3%	11	9	0	15%	-7	4.4
Cc1nc2ccc(F)cc2cc1C(=O)Nc1ccc(Cl)c(Cl)c1	14%	5	-13	-26	14%	3	3.6
CC(=O)N1c2ccc(S(=O)(=O)N3CCCC(C(=O)Nc4cccc(F)c4)C3)cc2CC1C (stereo not given)	0.4%	-10	4	-6	14%	-25	-4.6
COCCn1cnc2c1c(=O)n(Cc1c(F)cccc1Cl)c(=O)n2Cc1ccccc1	1.7%	5	-4	-3	7%	-1	-4.3
O=C(CNC(=O)c1ccc2c(c1)OCO2)Nc1ncccc1O	9.6%	-16	-2	-1	x	-13	6.4
Cc1ccc(CNC(=O)c2cc(-c3cc(C)cc(C)c3O)n[nH]2)cc1	8.1%	3	-7	-7	20%	1	-0.4
COc1ccc(OCC(=O)NCCCN2CCOCC2)cc1	-0.2%	0	2	-4	7%	-1	2.3
CCOC(=O)C1C(=O)NC(c2ccccc2)=NC1c1ccc(Br)cc1 (stereo not given)	6.8%	3	-1	-1	1%	2	-1.8
Cc1ccc(C(=O)CSc2nc3cccnc3n2C)cc1	0.7%	4	10	1	-13%	-1	-1.3

Continued:
Structure	PINK1 expr mod	Six1-Eya2 inh	TRPV1 potentiator	D2 potentiator	Sfp PPTase inh	CtBP-E1A blk	D2 ag
CCCN(CC(=O)Nc1cccc(Br)c1)CC(=O)Nc1ccc(F)c(F)c1F	u	18	-5	-15	21%	4	1.4
CC(C)(C)S(=O)(=O)c1ccsc1C(=O)O	0.4%	6	-4	-8	14%	-11	-1.3
COC(=O)C(C(=O)OC)C(CC(=O)c1ccc(Br)cc1)c1ccccc1 (stereo not given)	1.4%	16	x	-20	x	1	-0.3
CCOC(=O)c1c(C)sc2c1N(C(C)=O)c1cc(Cl)ccc1S2	0.3%	6	-7	2	-5%	-4	1.2
O=C(CC1CCCC1)Nc1nc2ccccc2[nH]1	-0.2%	-4	6	-5	9%	5	-0.2
CC(C)(C)N(CC#CCC(O)(c1ccccc1)c1ccccc1)CCO	1.1%	-3	9	-11	40µM*	x	0.1
CC(C)Cn1cnc2c(N)nc3ccccc3c21	1.0%	8	-6	-7	17%&-3%	4	5.2
COC(=O)N/N=C/c1cn(Cc2ccccc2F)c2ccccc12	3.4%	-14	-13	13	-7%	0	3.0
COc1ccc(Cc2c(-c3ccc(Cl)cc3)nc3c(C)cc(Br)cn23)c(C)c1	3.9%	-9	x	-4	x	2	-4.2
COc1ccc(CCNC(=O)CCC(=O)c2cccs2)cc1OC	-4.5%	3	11	-4	x	-1	-3.8
C=C(C)C(=O)NC1=NN(c2ccccc2)C(=O)C1	5.1%	-3	7	-6	20%	8	-0.6
O=C1CCCN1CCCNc1nc(NCc2cccs2)nc2ccsc12	6.4%	-2	x	-16	x	-6	-4.2
COC(=O)[C@]1(C)N[C@H](CN(C)S(=O)(=O)c2ccc(OC)cc2)[C@@H]2C(=O)N(C)C(=O)[C@@H]21	-0.9%	-1	x	x	x	8	-1.8
O=C1N/C(=N/O)S/C1=C/c1cccnc1	0.3%	4	5	3	u	4	-5.5
O=C(O)Cc1ccc(NC(=S)Nc2ccc(Br)cc2Cl)cc1	-0.4%	-1	-5	-12	u	5	-4.8
Cc1ccccc1-c1cc(C(=O)NCc2cccc(Br)c2)nn1CC1CC(c2cccc([N+](=O)[O-])c2)=NO1 (stereo not given)	0.3%	-7	x	-6	x	-7	-1.5
O=c1cc(N2CCOCC2)[nH]c(=O)n1C1CCCCC1	1.6%	22	7	-23	17%	0	-4.5
Cc1oc(-c2cc(F)cc(F)c2)nc1CN1CCSCC1	0.9%	-2	14	-31	-6%	-7	-5.4
CC1=NN(C(=O)c2cccc(Cn3nc(C)c([N+](=O)[O-])c3C)c2)C(O)(C(F)(F)F)C1 (stereo not given)	-3.0%[38.3 µM]	-1	7	-10	8%	-11	0.3
CC(NC(=O)COC(=O)c1ccc[nH]c1=O)c1ccccc1 (stereo not given)	0.3%	1	x	-5	x	2	-5.5
OCc1cn(-c2ccccc2)nc1-c1ccc(-c2nn(-c3ccccc3)cc2CO)cc1	16%	1	15	-3	7%	0	1.1
Cc1ccc(C)c(S(=O)(=O)N2CCCCC2CCNC(=O)C(=O)NCc2ccco2)c1 (stereo not given)	-0.2%	-12	-2	5	x	-3	2.3
COc1ccc(C2CC(c3c(-c4ccccc4)c4cc(Cl)ccc4[nH]c3=O)=NN2S(C)(=O)=O)cc1 (stereo not given)	2.8%	-4	-15	-13	3%	0	-2.3
O=C(CSC1=NS(=O)(=O)c2ccccc2N1)N1CCCCC1	2.8%	2	0	-4	x	5	-3.9
O=C(c1[nH]ncc1-c1cccc(Br)c1)C1CO1 (stereo not given)	13%	2	9	-9	11%	4	-0.4

2 of the compounds above, as labelled records:
> CCOC(=O)c1c(C)sc2c1N(C(C)=O)c1cc(Cl)ccc1S2
  PINK1 expr mod: 0.3%
  Six1-Eya2 inh: 6
  TRPV1 potentiator: -7
  D2 potentiator: 2
  Sfp PPTase inh: -5%
  CtBP-E1A blk: -4
  D2 ag: 1.2

> CC1=NN(C(=O)c2cccc(Cn3nc(C)c([N+](=O)[O-])c3C)c2)C(O)(C(F)(F)F)C1 (stereo not given)
  PINK1 expr mod: -3.0%[38.3 µM]
  Six1-Eya2 inh: -1
  TRPV1 potentiator: 7
  D2 potentiator: -10
  Sfp PPTase inh: 8%
  CtBP-E1A blk: -11
  D2 ag: 0.3

Additional entries.
Structure	PINK1 expr mod	Six1-Eya2 inh	TRPV1 potentiator	D2 potentiator	Sfp PPTase inh	CtBP-E1A blk	D2 ag
O=C(Oc1cccc(/C=N/Nc2nc(Nc3ccccc3)nc(N3CCOCC3)n2)c1)c1ccco1	-3.6%	-12	14	3	26%	-6	-1.1
CCc1nnc(NC(=O)CSc2nnc(CNC(=O)c3ccccc3F)n2C)s1	0.3%	22	-2	-7	11%	-1	-5.2
O=C(NNC(=O)c1ccccc1OCc1ccccc1)c1ccccc1O	-0.4%	-11	5	-10	23%	-19	-6.7
CC#CCCCC(=O)Nc1ccc(C(=O)O)cc1	-22%[38.3 µM]	-2	5	1	23%	1	-2.9
Cc1ccc(NC(=O)C2CCCN2C(=O)OCc2ccccc2)c(C)c1 (stereo not given)	1.9%	-19	2	-6	11%	-4	-2.6
Cc1onc(-c2c(Cl)cccc2Cl)c1C(=O)NCc1cccs1	1.6%	12	2	-19	-24%	9	-2.6
c1ccc(OCCSc2nnnn2-c2ccccc2)cc1	-0.4%	21	13	-26	-29%	23	-6.2
O=C(c1cccc(C(F)(F)F)c1)N1CCCCCC1	-1.8%[38.3 µM]	2	3	5	1%	10	u
Cc1cc(C)nc(NC(=S)Nc2cccc(F)c2)c1	0.6%	-6	x	-7	-1%	-1	-6.1
COC(=O)[C@]1(Cc2ccccc2)N[C@H](CN(C)C(=O)c2ccc(C(C)(C)C)cc2)[C@@H]2C(=O)N(Cc3ccccc3)C(=O)[C@@H]21	0.5%	-2	x	x	x	0	-1.3
COCCNC(=O)C1CC(c2ccccc2C(F)(F)F)=NO1 (stereo not given)	1.5%	3	-5	-6	x	x	-1.9
Cc1nc(SCc2cccnc2)[nH]c(=O)c1C	1.9%	5	-12	-8	0%	x	-2.6
COCCCn1c(=O)c2sccc2n(Cc2cc(C(=O)OC)ccc2OC)c1=O	1.2%	4	-5	-1	2%	2	-1.5
O=C(Cc1ccccc1)NNC1CC(=O)N(c2ccc(Cl)cc2)C1=O (stereo not given)	1.2%	1	1	-3	8%	3	-0.4
CS(=O)(=O)NCc1nnc(SCc2c(F)cccc2Cl)o1	1.7%	6	7	-7	5%	-25	-0.7
CCNc1nc(SCC(=O)Nc2ccc(Cl)c(Cl)c2)nc(N2CCOCC2)n1	3.1%	-4	21	-6	-3%	-4	9.7
O=C(Nc1ccc(Cl)c(Cl)c1)Nc1cc(C(=O)N2CCOCC2)ccc1N1CCCCC1	u	3	x	-6	x	5	-1.1
COC(=O)c1[nH]c2cccc(OC)c2c1NC(=O)CN(C)CC1OCCO1	2.9%	1	6	-15	4%	-1	-2.9
